Screens: PubChem BioAssay, National Center for Advancing Translational Sciences (NCATS)
Six1-Eya2 inh: qHTS Assay for Inhibitors of the Six1/Eya2 Interaction. Homeobox protein SIX1 (Homo sapiens) + Protein phosphatase EYA2 (Homo sapiens), …. AlphaScreen GST-Six1/His-Eya2 binding, biochemical; active compounds read low; control for the full effect not named in the record. activity change, % (test concentration not listed). 360,000 tested, 0.56% active; in the data active = activity change below about -65%; inconclusive = about -30% to -65%; inactive = above about -30%; note: % is set by controls: 0 for no effect and ±100 for the full control effect
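GST-Six1 + His-Eya2 (5X stock: 250/500 nM); Tris pH 8.0, 300 mM NaCl, 0.05% BSA, 0.02% Tween 20; GSH donor/Ni acceptor beads; 1 h 37 °C dark; AlphaScreen readout.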
D2 agonist: Beta-Arrestin HTS for Positive Allosteric Modulators of the Human D2 Dopamine Receptor: Agonists | D(2) dopamine receptor (Homo sapiens), P14416 | DiscoveRx PathHunter D2 beta-arrestin, luminescence, 90 min; 100% = 57 uM dopamine signal | activation, % (no concentration beside the values) | 360,000 tested, 0.084% active; in the data active = activation above about 40%; inconclusive = about 15% to 40%; inactive = below about 15%; note: compound concentration not given in the record; the text of the record calls up to 30% inactive
Target sequence (P14416 whole entry, looked up): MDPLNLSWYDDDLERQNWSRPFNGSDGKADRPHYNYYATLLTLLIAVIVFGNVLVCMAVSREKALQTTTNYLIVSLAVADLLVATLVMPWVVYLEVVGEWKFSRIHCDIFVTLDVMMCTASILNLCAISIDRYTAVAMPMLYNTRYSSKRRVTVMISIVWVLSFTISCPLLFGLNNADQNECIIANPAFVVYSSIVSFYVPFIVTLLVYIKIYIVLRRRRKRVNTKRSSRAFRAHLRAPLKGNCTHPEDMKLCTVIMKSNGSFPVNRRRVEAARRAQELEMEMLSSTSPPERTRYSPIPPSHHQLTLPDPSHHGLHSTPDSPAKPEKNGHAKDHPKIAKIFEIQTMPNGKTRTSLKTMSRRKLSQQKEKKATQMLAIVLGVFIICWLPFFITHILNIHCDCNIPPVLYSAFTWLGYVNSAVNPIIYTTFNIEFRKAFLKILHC
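Agonist mode: compounds alone added to overnight-plated D2 PathHunter cells for 90 min at 37 C, with 57 uM final dopamine (EC100) defining full response. Beta-arrestin recruitment detected by chemiluminescent reagent, read after 1 h at ambient temperature.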
TRPML1 agonist: qHTS for Agonists of the Human Mucolipin Transient Receptor Potential 1 (TRPML1); activation, % (no concentration beside the values); 410,000 tested, 0.12% active; TRPML1-expressing cells, Ca2+ dye fluorescence, FDSS; host cell line not named in the record; reference of the full effect not given here; AID 624414, 2012; Mucolipin-1 (Homo sapiens), Q9GZU1; in the data active = activation above about 50%; inconclusive = about 30% to 50%; inactive = below about 30%; note: 0% is about no effect; the text of the record puts the active cut at 80%
Target sequence (Q9GZU1 whole entry, looked up): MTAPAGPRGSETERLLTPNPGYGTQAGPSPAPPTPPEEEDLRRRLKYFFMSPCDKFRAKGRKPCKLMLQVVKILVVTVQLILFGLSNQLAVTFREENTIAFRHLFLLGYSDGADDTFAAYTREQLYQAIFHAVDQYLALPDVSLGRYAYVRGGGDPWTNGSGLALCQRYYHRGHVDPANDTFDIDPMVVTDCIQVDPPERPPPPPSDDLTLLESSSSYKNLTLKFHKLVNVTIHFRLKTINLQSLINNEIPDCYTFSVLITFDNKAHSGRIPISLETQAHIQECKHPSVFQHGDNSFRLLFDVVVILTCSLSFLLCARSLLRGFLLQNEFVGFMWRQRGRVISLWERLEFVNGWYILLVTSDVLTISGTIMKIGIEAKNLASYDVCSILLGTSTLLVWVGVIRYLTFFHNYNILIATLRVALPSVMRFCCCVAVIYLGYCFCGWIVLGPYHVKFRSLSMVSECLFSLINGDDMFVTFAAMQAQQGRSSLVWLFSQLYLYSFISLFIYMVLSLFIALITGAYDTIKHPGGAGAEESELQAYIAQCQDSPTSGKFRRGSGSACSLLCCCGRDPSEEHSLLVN
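In this qHTS format, compounds were pin-transferred onto Ca8-dye-loaded TRPML1-DL cells induced with Tet overnight, and intracellular Ca2+ fluorescence was recorded kinetically for 110 s after a 10 s baseline. A subsequent 4uM final 54-4 (EC80) addition followed by a second 110 s read served as the antagonist phase.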
PINK1 modulator: A Quantitative High throughput Screen to Identify Chemical Modulators of PINK1 Expression; PINK1 immunofluorescence, high-content cytometry, 24 h; Potency, µM (series often up to 76.6 µM), without a hit: at the top dose activation (PINK1 increase), usual class: activators; 410,000 tested, 0.2% active; AID 624263, 2012; active = well fitted activation curve with a large enough effect; inconclusive = small, poorly fitted or top-dose-only effect; inactive = flat fitted curve, though single readings scatter; cell line not stated here;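 note: potency is the fitted concentration of half-maximal effect; % of control where 0% means no effect; nearly all actives have a fitted effect of over 65% in size; a mitochondrial uncoupler was the plate control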
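Readout is PINK1 immunofluorescence, quantified alongside mitochondrial, cell and nuclear markers by laser-scanning microplate cytometry. Cells from a stable line were exposed to compound titrations (5 concentrations) for 24 hours, with CCCP controls.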
TRPML1 inh: qHTS for Inhibitors of the Human Mucolipin Transient Receptor Potential 1 (TRPML1) | Mucolipin-1 (Homo sapiens), Q9GZU1 | TRPML1-inducible cells, Ca2+ dye fluorescence, FDSS; active compounds read low; inhibition of EC80 agonist-evoked calcium signal | activity change, negative = inhibition, % (test concentration not listed) | 390,000 tested, 0.02% active | AID 624415, 2012; in the data active means activity change below about -50%; inconclusive means about -30% to -50%; inactive means above about -30%;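 note: stimulus is agonist 54-4 at its EC80 concentration; % is set by controls: 0 for no effect and ±100 for the full control effect; compound concentration not given in the record; the text of the record puts the active cut at -80%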
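TRPML1-DL cells, Tet-induced overnight (~16 h, 37 °C) at 1,500 cells/well, were loaded with Ca8 no-wash dye plus quencher for 45-90 min at room temperature. Compounds were pinned during FDSS kinetic reading; agonist 54-4 at EC80 (4 uM final) then added.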
CtBP-E1A inh: qHTS Assay for Inhibitors of the CtBP/E1A Interaction; CtBP / adenovirus E1A interaction (AlphaScreen); AlphaScreen GST-E1A/His-CtBP binding, 1536-well; active compounds read low; control for the full effect not named in the record; activity change, % (no concentration beside the values); 340,000 tested, 0.49% active; AID 651724, 2012; in the data active means activity change below about -65%; inconclusive means about -30% to -65%; inactive means above about -30%; note: % is set by controls: 0 for no effect and ±100 for the full control effect
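Steps: dispense buffer (Tris pH 8.0, NaCl 300 mM, TCEP 1 mM, BSA, Tween 20); add 5X protein mix (GST-E1A, His-CtBP, 125 nM each); pin 23 nL compound; 2 h at 37 °C, dark; add 5X beads (50 ug/mL); 1 h; read.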
* marks the source's active call; other numbers are inactive results; ? = inconclusive; . = no result given; & = joins results of further samples; [ ] = another dose, or the depositor's remark.

mol	Six1-Eya2 inh	D2 agonist	TRPML1 agonist	PINK1 modulator	TRPML1 inh	CtBP-E1A inh
COc1ccc(C)cc1-n1cnc2cc(C(=O)NC3CCCCCC3)ccc21	.	.	3.1	0.8%	8.1	.
OC[C@H]1O[C@@H](Oc2ccc3cc(Br)ccc3c2)[C@H](O)[C@@H](O)[C@H]1O	0.6	-3.3	0.0	1.6%	7.2	5.4
CCCCOc1ccc(C2/C(=C(/O)c3ccc4c(c3)CC(C)O4)C(=O)C(=O)N2CCCN2CCOCC2)cc1OC (stereo not given)	0.7	5.7	0.3	4.6%	-3.0	2.5
CCOc1cc(-c2conc2N)cc(OCC)c1OCC	4.9	6.7	0.2	4.6%[38.3 µM]	-10.4	7.3
COc1ccc(C(CCN2CCCC(C)C2)c2c(OC)cc(OC)c3c(-c4ccccc4)cc(=O)oc23)cc1 (stereo not given)	-12.9	-1.4	2.8&0.9	-0.6%	-2.0&9.8	-10.1
CC(C)[C@@H](C(=O)N1CCN(Cc2ccc3c(c2)OCO3)CC1)n1nnc2ccccc2c1=O	-7.2	-0.3	-0.4	-0.9%	-5.8	-4.1
CC(=O)Nc1ccc(Sc2ccc([N+](=O)[O-])o2)cc1	-8.3	-8.3	-0.2	?	2.6	-14.7
O=C(N/N=C/c1ccc(O)cc1)c1cncc(Br)c1	-22.4	-2.4	-0.7	-0.9%	-15.6	-24.9
COc1ccc(C(=O)Nc2cc(C)c(O)c(-c3nc4ccccc4s3)c2)cc1OC	.	.	1.1	-0.3%	41.3	.
COc1ccc(Cl)cc1Cn1c(C)c(C(=O)NCc2cccc(Cl)c2)sc1=O	2.5	12.1	-0.2	-0.4%	.	-7.5
COc1ccc(CNC(=O)[C@@H](Cc2ccccc2)NC(=O)CC[C@H]2O[C@@H](n3ccc(=O)[nH]c3=O)[C@H](O)[C@@H]2O)cc1	4.0	6.7	-0.5	1.9%	.	1.0
COc1ccc2nc(SCc3cccnc3)c(C#N)cc2c1	-7.5	-2.2	-0.6	2.0%	0.8	-0.2
Cc1ccc(CNC(=O)CN(C)C2=NS(=O)(=O)c3ccccc32)cc1	-1.5	-1.4	0.0	0.6%	22.3	-8.3
C[N+]1(CCN2C(=O)C3CC=C(Cl)CC3C2=O)CCOCC1 (stereo not given)	0.9	-2.1	-0.7	0.7%	2.9	0.5
O=C1CC(=O)Nc2cc(S(=O)(=O)Nc3ccc(Cl)c(C(F)(F)F)c3)ccc2N1	-3.9	5.0	-0.8	0.1%	2.7	.
Cc1ccc(C(=O)NNC(=O)CSc2nnc3ccccn23)cc1	3.0	3.7	-0.7	0.4%	8.2	2.5
COc1ccc(Cc2ccccc2C(=O)O)cc1	7.8	-3.9	2.0	-0.6%	-9.5	-5.2
Nc1nc(N)c2c(ccc3c2ccn3Cc2cccc([N+](=O)[O-])c2)n1	?	13.1	-0.4	-1.1%	.	?
COc1ccc(N2CC(O)=C(c3n(C)c4ccccc4[n+]3C)C2=N)cc1	1.7	-4.3	-0.7	2.0%	9.3	8.6
CCOC(=O)c1c(NC(=O)C(=O)N/N=C/c2ccc(O)c(OC)c2)sc2c1CCCCC2	-11.8	3.8	0.1	8.9%	25.5	9.7
O=C(Nc1cccc(-c2cccc(F)c2)c1)C1CCN(Cc2ccco2)CC1	-3.3	-1.1	0.2	2.7%	1.9	-5.9
C(=C\c1nc(-c2ccccc2)no1)/c1ccccc1	94.9	-1.5	2.8	9.1%	-5.2	88.3
CSCCC(NC(=O)c1ccco1)C(=O)N1CCN(c2ccccc2O)CC1 (stereo not given)	-0.9	-0.3	6.4	-0.9%	-12.8	.
CCCCCOP(=O)(OCCCCC)C1(NS(=O)(=O)c2ccccc2)C=CC(=O)c2ccccc21 (stereo not given)	-0.8	?	1.5	2.9%	14.7	-0.9
CCc1ccccc1NC(=O)CN1CCN(C(=O)C2CCN(C(=O)/C=C/c3ccccc3)CC2)CC1	-0.3	4.8	2.8	0.9%	-16.1	-9.8
CCCCOc1ccccc1C1C(C(=O)OC)=C(C)N(C)C(C)=C1C(=O)OC	-0.7	-4.1	0.9	2.2%	-5.4	-16.6
COCCOC(=O)C1=C(C)N=C2SCCC(=O)N2C1c1cccc(Br)c1 (stereo not given)	2.5	-1.4	0.8	.	3.3	-4.6
CC(O)C(C(=O)OCc1ccc([N+](=O)[O-])cc1)N1C(=O)c2ccccc2C1=O (stereo not given)	-17.8	1.6	-0.7	0.4%	54.1	1.0
CC(C)(C)NC(=O)C1CCN(S(=O)(=O)c2ccc(Br)cc2)CC1	2.4	-2.7	1.4	-1.4%	8.9	3.4
Cc1ccccc1Cn1c(CN2CCc3ccccc3C2)nc2c1c(=O)n(C)c(=O)n2C	-2.4	-0.7	1.7	2.2%[38.3 µM]	46.4	-3.4
COc1ccc(NC(=O)CC(C)C)c(OC)c1	7.2	-2.4	-0.3	3.0%	-3.9	8.0
CCOC(=O)C1=C(C)Nc2nc(C)nn2C1c1ccc(OCC)c(OC)c1 (stereo not given)	-2.4	-1.2	0.7	-0.7%	-1.8	-8.0
O=C(c1cc2ccccc2c(=O)o1)N1CCCCCC1	3.5	-0.2	-0.1	-0.3%	-19.4	-8.2
Cc1nn(Cc2ccccc2)c(C)c1C(=O)N1CCN(CC(=O)Nc2ccccc2Cl)CC1	5.8	-6.2	-0.2	-0.5%	-10.8	-1.7
Cc1cc(C)c(NC(=S)N(CCc2ccncc2)C(C)C)c(C)c1	6.0	-3.2	-0.6	1.3%	-7.0	3.9
Cc1ccccc1Nc1sc(C(=O)c2ccccc2)c(N)c1C(=O)NCc1ccc(Cl)cc1	.	.	3.0	15.8µM*	5.8	.
CCOc1ccc(OCC)c(NC(=O)C2CCCN(S(=O)(=O)c3ccc4c(c3)oc(=O)n4C)C2)c1 (stereo not given)	.	.	-0.4	?	-0.1	.
COc1cc(/C=N/Nc2nc(Nc3ccccc3)nc(-n3nc(C)cc3C)n2)cc(OC)c1OC	-17.2	8.8	-0.4	-3.3%	0.9	-16.8
CN(c1ccccc1C(=O)NC1CC2CCC1C2)S(=O)(=O)c1ccccc1 (stereo not given)	11.7	-0.8	0.9	-2.1%	-16.5	5.1
Cc1ccc(/C([O-])=C(/C(=S)Nc2ccc(SC(F)F)cc2)[n+]2ccccc2)cc1[N+](=O)[O-]	-4.3	-3.2	0.2	2.5%	11.3	-0.6
CC(NC(=O)c1cccc(N(C)C)c1)c1ccc(-n2ccnc2)cc1 (stereo not given)	-8.0	-5.1	0.3	0.8%	11.6	-9.4
COc1ccc(-c2nc3ccc(Br)cn3c2CC(C)(C)C)cc1OC	-0.3	-4.3	-0.5	2.1%	20.8	3.8
O=C(CN1CCN(S(=O)(=O)c2ccccc2)CC1)Nc1ccccc1C(=O)c1ccccc1	-14.0	-2.9	0.3	-0.4%	-16.4	-9.9
O=C(O)CC1NC(=S)N(Cc2ccccc2)C1=O (stereo not given)	7.7	-4.2	-0.6	-0.4%	-12.4	2.5
COc1cccc(NC(=O)C2CC2(c2cccc(OC)c2)c2cccc(OC)c2)c1 (stereo not given)	3.9	-0.1	0.6	-1.2%	2.8	5.6
C=C(C)COc1ccc2c(C)c(CC(=O)OC)c(=O)oc2c1C	1.8	-2.6	3.7	-1.7%	15.4	0.7
Cc1cccc(C)c1NC(=O)Cn1c(CN2CCCCC2)nc2ccccc2c1=O	-5.4	-3.6	-0.8	0.9%	-7.2	5.3
COc1ccc(NC(=O)c2cc3c(Cl)nc4ccccc4c3s2)cc1OC	-21.5	-1.3	0.1	25.8%	9.4	-0.7
COc1ccc(OC)c2[nH]c(=O)c(CCNS(=O)(=O)c3ccc(F)cc3)cc12	-12.4	0.9	0.7	0.7%	29.8	-3.1
O=c1ccc(-c2nc3ccccc3n2Cc2ccc(Cl)cc2)c[nH]1	-0.6	1.3	-0.1	7.7%	-8.0	-1.1

(cont.)
mol	Six1-Eya2 inh	D2 agonist	TRPML1 agonist	PINK1 modulator	TRPML1 inh	CtBP-E1A inh
C=CCNC(=O)c1onc(CSc2ccc(Cl)cc2)c1C(=O)O	-5.6	2.0	-0.7	0.7%	7.6	1.6
CCOc1[nH]n(-c2ccccc2)c(=O)c1C=NCC(=O)OC	0.0	-4.6	-0.8	1.7%	-7.6	.
NCCc1nnc(SCC(=O)Nc2ccc(Br)cc2)o1	-4.4	-1.8	-0.8	-1.4%	-5.7	0.2
CCCCn1nnnc1C(c1ccccc1)N1CCN(c2ccccc2OC)CC1 (stereo not given)	-4.5	.	4.6	1.0%	.	-11.4
CN(Cc1ccccc1C(F)(F)F)C(=O)C1CCC(=O)N(CC2CCCCC2)C1 (stereo not given)	2.3	-1.0	-0.8	1.3%	17.1	-3.2
Cc1cccc(C(=O)NCC(=O)N2CC(=O)Nc3ccccc32)c1	-0.5	-0.5	0.3	0.5%	31.8	8.6
Nc1nonc1-n1nnc(C(=O)N/N=C/c2ccc3c(c2)OCO3)c1-c1ccccc1	-3.8	0.1	-0.2	-0.3%	-7.8	-12.6
O=C(CNC(=O)c1ccco1)OCc1c(F)cccc1Cl	14.8	-0.2	-0.1	-0.3%	-2.6	5.8
COc1cccc(C(=O)Nc2ccc(S(=O)(=O)N3CCCCC3)cc2)c1OC	0.0	-0.6	1.2	-0.4%	-0.2	0.0
c1cn(CC2(Cn3ccnc3)COC2)cn1	11.9	0.4	-0.3	-2.1%	-5.0	-0.3
O=c1oc2ccccc2c(NC2CCCCC2)c1NS(=O)(=O)c1ccc(Cl)cc1	-5.1	-1.9	1.9	1.8%	11.3	.
CS(=O)(=O)c1ccc(NC(=O)c2ccc3c(c2)S(=O)(=O)N=C2CCCCCN23)cc1	29.1	-4.9	0.8	-1.6%	-0.6	0.0
COc1ccc(NC(=O)Nc2ccccc2SC)c(OC)c1	-14.5	-3.2	-0.8	8.3%	-8.3	-1.9
Cc1ccc(N2CC(NC(=O)N3CCN(C(=O)c4ccco4)CC3)CC2=O)cc1 (stereo not given)	8.2	-1.8	0.2	-0.5%	8.9	-1.8
CCOc1ncccc1C(=O)OC(C)C(=O)Nc1ccc(CC)cc1 (stereo not given)	0.9	-1.3	1.0	2.1%	-2.0	4.4

Not a hit list; any-hit rate near 1%.
